Rango release inh: prevents RanGTP from dissociating the Rango-importin beta complex; O95149+P62826; 340,000 compounds, 0.071% hits; Potency, µM (series often up to 46.1 µM), for inactives: at the top dose activity change, negative = inhibition; AID 540253; Biochemical FRET Rango-importin beta, RanGTP-induced dissociation; active means falling FRET ratio curve, often poorly fitted, with flat reads before Ran was added; inconclusive means other falling curves, or compound fluorescence or quenching; inactive means flat or rising ratio curve;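 note: potency is the fitted concentration of half-maximal effect; % of control where 0% means no effect; nearly all actives have a fitted effect of over 45% in size; -100% = wells without RanGTP and RCC1; the record marks most hits as doubtful in a second field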
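Rango FRET biosensor (snurportin-1 IBB flanked by N-terminal EYFP and C-terminal CFP10) at 0.1 uM, with 0.25 uM importin beta in PBS, 1mM DTT, 0.02% Tween-20, 0.1% BSA. 0.6 uM Ran, 2mM GTP and 0.2 uM RCC1 were then added for 45 min at room temperature. Inhibition read as loss of FRET rise.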
GLA inh pH 4.5: blocks human alpha-galactosidase A at pH 4.5. P06280. purified enzyme, 4-MU-alpha-Gal fluorescence, pH 4.5. activity change, negative = inhibition, % at 105 µM. 230,000 tested, under 10 active; inconclusive = small, poorly fitted or top-dose-only inhibition, or a rising curve; inactive = flat fitted curve, though single readings scatter; no compound was filed as active;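 note: 0% = full activity with enzyme and -100% = basal without enzyme; dose as in the result columns while the protocol names 77 µM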
Target sequence (P06280 whole entry, looked up): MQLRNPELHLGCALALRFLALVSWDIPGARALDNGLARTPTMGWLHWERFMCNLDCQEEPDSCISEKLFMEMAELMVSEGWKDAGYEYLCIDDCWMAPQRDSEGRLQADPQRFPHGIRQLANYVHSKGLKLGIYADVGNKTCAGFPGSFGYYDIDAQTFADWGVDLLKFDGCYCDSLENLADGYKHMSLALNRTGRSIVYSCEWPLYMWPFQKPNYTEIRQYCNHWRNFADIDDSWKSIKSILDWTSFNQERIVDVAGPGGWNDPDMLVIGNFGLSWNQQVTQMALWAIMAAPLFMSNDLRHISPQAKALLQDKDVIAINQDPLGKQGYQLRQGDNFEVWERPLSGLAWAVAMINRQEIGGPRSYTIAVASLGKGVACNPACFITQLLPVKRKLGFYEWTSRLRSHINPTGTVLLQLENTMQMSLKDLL
Rango complex inh: inhibitors of Rango-importin beta complex formation. 340,000 compounds, 0.031% hits. Q14974. AID 540263. Potency, µM (series often up to 92.2 µM), for inactives: at the highest dose inhibition of complex formation. Rango CFP/YFP FRET sensor + importin beta, 45 min; active = rising FRET ratio curve, often small or poorly fitted; inconclusive = mostly compound fluorescence or quenching in the first reads; inactive = flat curves in all reads;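 note: potency is the fitted concentration of half-maximal effect; 0% = DMSO wells and 100% = buffer wells lacking importin beta; nearly all actives have a fitted effect of over 15% in size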
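FRET biosensor Rango (snurportin 1 IBB between N-terminal EYFP and C-terminal Cerulean), 50 nM in PBS/1 mM DTT/0.02% Tween-20/0.1% BSA, preincubated 5 min RT with compound; 0.125 microM importin beta added, 45 min RT, CFP/YFP FRET ratio read.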
miR-21 reporter: miR-21 reporter, rising signal. HeLa miR-21 FLuc reporter, luciferase, 48 h. Potency, µM (series often up to 38.3 µM), for the others: at the highest dose reporter change, positive = more light. 340,000 tested, under 10 active; active = well fitted rising curve with a large enough effect; inconclusive = small, poorly fitted or top-dose-only effect; inactive = no such curve, though single readings can be large or run the other way;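 note: % of control where 0% means no effect; miR-21 action dims this reporter so a rising signal means less miR-21 action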
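Compounds were titrated across several concentrations (up to approximately 40 uM) and incubated 48 hours with HeLa miR-21-FLuc reporter cells (miR-21 target sequence downstream of FLuc, endogenous miR-21). Readout was firefly luciferase luminescence after lytic detection reagent.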
Active calls of the source: *; ? = inconclusive; nt = not tested or not shown; & = joins results of further samples. Some of the compounds tested, so the mix of outcomes need not match the whole.

mol | Rango release inh | GLA inh pH 4.5 | Rango complex inh | miR-21 reporter
CCc1c(C)nc2ncnn2c1N1CCCC(C(=O)NCCc2ccc(OC)cc2)C1 (stereo not drawn) | 5% | -9 | -0.1% | 1%
Cc1ccc(C(C)C)c(OCC(=O)Nc2cccc(S(=O)(=O)NC3=NCCCCC3)c2)c1 | -7% | nt | 0.3% | 19%
CN(Cc1nc(Cc2ccccc2F)no1)CC1(N2CCOCC2)CCCCC1 | -16% | -7 | 3.5% | -2%
COc1ccc(C)cc1Nc1n[n+](-c2ccccc2)c(-c2c(OC)ccc3ccccc23)s1 | 8% | nt | -1.3% | nt
Cc1c(C)c2c(C)[nH]nc2oc1=O | -1% | -4 | -5.1% | -1%
O=C(NC(=O)N1CCN(c2ccccc2)CC1)c1ccc(Cl)cc1 | -18% | -8 | -0.8% | -42%
CC(=O)c1ccc(NC(=O)CN2CCCC2)cc1 | -4% | nt | -0.1% | -51%
O=C(NCC1CCCO1)c1cc(S(=O)(=O)N2CCCCC2)ccc1Cl (stereo not drawn) | -3% | nt | 3.4% | nt
CCn1c(CNC(=O)c2cc(OC)c(OC)c(OC)c2)cc2ccccc21 | 10% | nt | -3.8% | 18%
Cc1cc(C)c(S(=O)(=O)c2ccccc2C)c(OCC(C)(C)C)n1 | -2% | -9 | 2.6% | 6%
CN(C)c1ccc(-c2nc3n(n2)C(c2cccnc2)C2=C(CC(C)(C)CC2=O)N3)cc1 (stereo not drawn) | -1% | -27 | ? | -21%
CSc1nc(-c2ccccc2)nn1C(=O)c1ccccc1 | -5% | -3 | 0.4% | -18%
O=C(CSc1ccccn1)N1CCN(c2ccc(Cl)cc2)CC1 | -2% | 8 | -0.2% | 2%
C=CCNC(=S)N/N=C/c1ccc(OCc2ccccc2)cc1 | 9% | -7 | -0.3% | 1%
O=C(CC1Oc2ccccc2NC1=O)NC1CCCC1 (stereo not drawn) | -22% | -3 | -2.8% | 1%
Cc1nonc1C(=O)N/N=C/c1ccccc1 | -7% | -2 | 2.4% | -2%
CC1CCCCN1C(=O)Cn1cc(/C=C2/C(=O)Nc3ccccc32)c2ccccc21 (stereo not drawn) | nt | -9 | nt | 26%
C/C=C\C=C\C(=O)N1CC2(CC(c3cccc(NC(=O)/C(C)=C\C)c3)=NO2)C[C@H]1C(N)=O (stereo partly drawn) | 13% | 6 | -4.5% | 5%
O=c1[nH]cc(CN2CCOCC2)c(=O)[nH]1 | -5% | nt | -2.9% | nt
Cc1ccc(S(=O)(=O)N(C)c2c(C)ccc(S(=O)(=O)N3CCN(C)CC3)c2C)cc1 | 13% | -5 | 2.8% | 0%
COC(=O)c1ccc(NC(=O)CNC(=O)c2sc3ccccc3c2Cl)cc1 | 1% | nt | -4.0% | nt
COC(=O)c1c(NC(=O)CC2NCCNC2=O)sc2c1CCCC2 (stereo not drawn) | 34% | 7 | -6.4% | -10%
Cc1ccc(S(=O)(=O)NCC(=O)OCC(=O)Nc2cccc(S(=O)(=O)NC3=NCCCCC3)c2)cc1 | -4% | 2 | 3.2% | 0%
Nc1nnnn1/N=C/c1ccc(F)cc1 | -6% | nt | 0.6% | -1%
Cc1cccc(-c2nc3ccccc3c(=O)n2NC(=O)c2ccc([N+](=O)[O-])c(C)c2)c1 | -11% | 1 | -0.3% | -6%
Cc1onc(-c2c(F)cccc2Cl)c1C(=O)OCC(=O)NCc1ccco1 | -10% | 6 | 0.0% | -5%
O=C(O/N=C(\c1ccccc1)c1ccncc1)c1ccccc1Cl | -15% | 1 | -0.6% | 0%
CC(NC(=O)C1CCCN1S(=O)(=O)c1cccc2nsnc12)c1ccccc1 (stereo not drawn) | 1% | nt | 0.9% | -5%
CC(=O)N1CCN(C(=O)CCNS(=O)(=O)c2ccccc2)CC1 | 9% | nt | ? | nt
COc1ccc(Cl)cc1NCC(=O)Nc1ccc(OC)c(S(=O)(=O)N2CCCCC2)c1 | 1% | nt | 3.7% | nt
C=CC[C@H](CC(=O)N(CCO)Cc1ccccc1)C(=O)N[C@H](C)COC(=O)[C@@H](CC=C)CC(=O)OC(C)(C)C | 3% | nt | 2.2% | nt
O=C(/C=C/c1ccc(Cl)cc1)N1CCN(c2c(Cl)cccc2[N+](=O)[O-])CC1 | -7% | 2 | 0.9% | -1%
CCCC(C)C(=O)Nc1cc([N+](=O)[O-])ccc1Cl (stereo not drawn) | -7% | 3 | -2.8% | -7%
CC1Cc2ccccc2N1C(=S)NC1CCCC1 (stereo not drawn) | -8% | nt | 0.9% | -11%
CCOC(=O)c1c(N=CN(C)C)c(C#N)n2c1CCC2 | -1% | 11 | 0.2% | -14%
CCNc1c(NS(=O)(=O)c2ccc(C3CCCCC3)cc2)c(=O)oc2ccccc12 | 2% | nt | 0.8% | -2%
CCC1CCCCN1C(=O)CSc1nc2ncccc2[nH]1 (stereo not drawn) | 1% | nt | 0.3% | 0%
CSc1nncc(/C(C)=N\Nc2cccc(C)c2)n1 | -10% | 3 | 0.3% | -15%
CCP(=O)(CC)c1cccc(N)c1 | 6% | 6 | 4.6% | 1%
COc1ccc(-c2nc(N3CCCCCC3)sc2C(=O)c2ccccc2)cc1 | nt | 4 | -9.8% | -2%
COc1ccc(NC(=O)CC2C(=O)NCCN2C(=O)c2ccccc2)cc1 (stereo not drawn) | 0% | -19 | -1.6% | 1%
Nc1cnn(Cc2ccc(F)cc2)c1 | 0% | -15 | 4.4% | -3%
O=C(CSc1ccccc1C(=O)O)Nc1ccc2c(c1)OCO2 | 6% | nt | -2.8% | nt
CCc1ccc(OCC(=O)Nc2ncn[nH]2)cc1 | -5% | 6 | -2.4% | -39%
Cc1ccc(CNC(=O)c2ccc(CS(=O)Cc3ccccc3Cl)o2)cc1 (stereo not drawn) | -14% | nt | -3.8% | 8%
O=C(COc1ccc(F)cc1Cl)Nc1ccc(N2CCOCC2)cc1N1CCOCC1 | 14% | nt | 11% | nt
COc1ccc(OC)c(S(=O)(=O)NCC2CCCO2)c1 (stereo not drawn) | -1% | 6 | -7.0% | -8%
Cn1cnnc1SCC(=O)NC1CCCN(Cc2ccc(Cl)cc2)C1 (stereo not drawn) | 11% | nt | -0.1% | -2%
CCCc1cc(=O)[nH]c(SCC(=O)Nc2ccc([N+](=O)[O-])cc2C#N)n1 | 0% | -17 | 1.5% | -2%
Cc1nn2c(N)c(C#N)cnc2c1-c1ccc(Cl)cc1 | 6% | -3 | -5.6% | -9%

The listing continues:
mol | Rango release inh | GLA inh pH 4.5 | Rango complex inh | miR-21 reporter
CCN(CC)S(=O)(=O)c1cccc(-c2nnc(SCC(=O)c3ccc(Cl)s3)n2C)c1 | 41% | -16 | 7.0% | -4%
C[C@H](CO)N1C[C@H](C)[C@@H](CN(C)C(=O)NC2CCCCC2)Oc2ccc(NS(=O)(=O)c3ccccc3)cc2C1=O | -17% | nt | ? | nt
COC(=O)C1C(O)=C(C=NCc2ccccc2)C(=O)CC1(C)C (stereo not drawn) | 31% | 5 | -3.0% | -3%
O=C(Nc1nc2ccccc2s1)C1CC(=O)N(c2ccc(F)cc2)C1 (stereo not drawn) | -3% | 7 | 4.6% | 6%
O=C(NC1C2CC3CC(C2)CC1C3)c1ccc2c(c1)OCO2 (stereo not drawn) | -7% | nt | -3.0% | -35%
O=C(CSc1nnc(-c2ccccn2)n1Cc1ccco1)c1ccc(Cl)cc1 | -19% | 6 | 2.4% | -2%
C=CCSc1nc2[nH]ncc2c(=O)[nH]1 | 2% | -2 | 4.4% | 1%
O=C(COc1ccc(Cl)cc1Cl)N1CCN(C(=O)c2ccco2)CC1 | -9% | nt | -0.2% | -13%
CCOC(=O)c1ccc(NC(=O)CSCc2ccco2)cc1 | 11% | -2 | -0.8% | -8%
N#Cc1c(-c2ccccc2)c(-c2ccccc2)nn(CC(=O)NNC(=O)Nc2ccc(Cl)c(Cl)c2)c1=O | -3% | -14 | 3.1% | ?
O=C(NCc1cn(-c2ccccc2)nc1-c1ccccc1)c1cc([N+](=O)[O-])cc([N+](=O)[O-])c1 | 16% | -8 | -0.1% | -2%
O=C(O)CCC(=O)N1CCN(c2ccc(C(=O)c3ccc(F)cc3)cc2)CC1 | 1% | -10 | -0.1% | -3%
CC1CCN(CCCNC(=O)c2cc3c(=O)n(C)c4ccccc4c3n2C)CC1 | 1% | -2 | -3.1% | -3%
Cc1nnc(Nc2ccc(C(=O)O)cc2)[nH]c1=O | -6% | -2 | 0.7% | 4%
CC(C)(C)NCC(O)c1cc(O)cc(O)c1 (stereo not drawn) | ? | -6&-1&3 | ? | -19%
Cc1ccc(S(=O)(=O)N2CCC(NC(=O)c3cccc(F)c3)CC2)cc1 | 9% | nt | 2.5% | 1%
O=C(NCCN1CCN(S(=O)(=O)c2ccccc2)CC1)C(=O)Nc1ccc(F)cc1 | 1% | nt | -0.5% | 4%
CN(C)/C=N/S(=O)(=O)c1ccc(Cl)cc1 | 0% | 7 | ? | 0%
O=C(c1ccccc1)N1CCC2(CC1)NCCc1[nH]cnc12 | 3% | nt | -2.2% | -3%
COc1ccc(N2CCN(C(=O)CCc3ccccc3OC)CC2)cc1 | -5% | nt | 4.0% | -7%
O=C(N/N=C/c1ccc(OC(=O)c2cccs2)cc1)c1ccc(F)cc1 | 6% | -3 | 3.0% | -10%
CC(=O)N1CCOc2ccc(S(=O)(=O)NCCc3ccccc3)cc21 | 0% | nt | -0.2% | -9%
O=C(CSc1nnc(Cc2ccccc2)o1)N1CCc2ccccc21 | 9% | 5 | -1.2% | -2%
CC(=O)Nc1cccc(NC(=O)CSc2ncc(C(=O)Nc3ccccc3)c(=O)n2C)c1 | ? | nt | ? | nt
O=C(CCCc1ccccc1)Nc1cccc2c1CCCC2 | -6% | 1 | 2.6% | 0%
O=C(CNC(=O)c1ccc(Cl)cc1Cl)OC1CCCCC1=O (stereo not drawn) | 1% | nt | 3.2% | nt
Cc1ccc2nc(CSc3nc(C)ccc3C#N)[nH]c2c1 | ? | -1 | ? | -1%
CCN(CC)c1ccc(NC(=O)c2c(OC)cccc2OC)c(C)c1 | 2% | -2 | -0.4% | -6%
CC1(C)Cc2cccc(C(=O)NCc3ccco3)c2O1 | 9% | 5 | 1.0% | 2%
Nc1ccc(S(=O)(=O)NCC2CCCCO2)cc1 (stereo not drawn) | 1% | nt | ? | nt
COc1cccc(C2CC(c3c(F)cccc3Cl)n3nc(N)nc3N2)c1 (stereo not drawn) | 5% | 4 | 3.8% | 0%
CCn1cc(S(=O)(=O)c2ccc(C)cc2)c(=O)c2cc(OC)ccc21 | ? | nt | 0.1% | -6%
CC(Oc1ccc(Cl)cc1)c1ccn[nH]1 (stereo not drawn) | 4% | 4 | 0.6% | -10%
O=Cc1ccc(C(=O)OCC(=O)N2CCCC2)cc1 | 24% | nt | -1.9% | -9%
COc1ccc(C(=O)Nn2c(SCC(=O)c3ccc(Cl)cc3)nc3ccccc3c2=O)cc1 | -16% | 3 | -2.2% | 26%
COc1ccc2c(c1)OC[C@H]1[C@@H]2N2C(=O)CNC(=O)[C@@]2(C)[C@H]1c1ccccc1 | 4% | nt | 5.6% | nt
O=C(c1ccccc1NS(=O)(=O)c1ccc2c(c1)OCCO2)N1CCOCC1 | 1% | -8 | -2.2% | -12%
Cc1cc([N+](=O)[O-])ccc1NC(=O)CSc1nccc(=O)[nH]1 | -7% | -4 | 2.7% | -6%
Cc1cc(SCc2cccc(Cl)c2)nc(=O)[nH]1 | -18% | nt | -1.0% | -25%
O=C(Nc1cccc(F)c1)c1ccc(Br)o1 | 13% | -25&1 | 3.4% | -41%
Cc1ccc(C(=O)OC(C)C(=O)N(C)C2CCCCC2)cc1S(=O)(=O)N1CCCCC1 (stereo not drawn) | ? | nt | -1.5% | nt
CCCCCCCCS(=O)c1sc2nc3c(cc2c1N)CCCC3 (stereo not drawn) | 3% | nt | -0.8% | nt
CC(C)(C)C1CCC(=NNC(=O)c2ccc(Br)o2)CC1 (stereo not drawn) | 8% | 4 | 0.7% | -50%
CCc1nn(CC(=O)NC(C)CCc2ccccc2)c(=O)c2cc3cc(F)ccc3n12 (stereo not drawn) | -16% | nt | -1.7% | 4%&-5%
